Screening data deposited in PubChem BioAssay by ICCB-Longwood Screening Facility, Harvard Medical School.
GIV Gai3 FP – inhibitors of GIV GBA-motif binding to rat Galpha-i3; P08753; Galpha-i3/FITC-GIV peptide fluorescence polarization, 90 min; active compounds read low; scaled: aluminum fluoride 0%, vehicle 100%; percent of control (FP), % (test concentration not listed); 210,000 compounds, 0.42% hits; AID 1224905;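 active = replicate mean at 85% of control or lower, very high polarization wells dropped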;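 note: lower values mean more displacement of the GIV peptide from Galpha-i3; wells of about 15 µL received 100 nL stock; the first replicate is given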
Target sequence (P08753 whole entry, looked up): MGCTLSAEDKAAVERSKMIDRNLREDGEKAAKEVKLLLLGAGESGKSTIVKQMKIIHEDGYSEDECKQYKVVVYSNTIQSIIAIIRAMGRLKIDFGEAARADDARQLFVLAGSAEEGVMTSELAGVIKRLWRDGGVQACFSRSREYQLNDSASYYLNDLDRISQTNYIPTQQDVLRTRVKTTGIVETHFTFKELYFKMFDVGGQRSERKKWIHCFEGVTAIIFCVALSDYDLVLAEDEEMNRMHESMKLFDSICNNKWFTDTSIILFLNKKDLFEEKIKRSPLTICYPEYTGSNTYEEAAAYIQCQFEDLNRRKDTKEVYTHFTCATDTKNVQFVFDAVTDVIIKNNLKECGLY
Starred values were filed as active, the others as inactive. These rows are one share of the data, so the mix of outcomes need not match the whole.

Start of the data: the first 4 entries, to show the layout:
SMILES | GIV Gai3 FP
O=S(=O)(Cc1ccc(Cl)cc1)c1nc2ccccc2nc1N1CCc2ccccc2C1 | 102
Cc1csc(-c2cc(S(=O)(=O)N3CCCC(C)C3)cn2CC(=O)N2CCCCC2)n1 (centres undefined) | 103
Cc1oc(C2CCN(C(=O)C3CCCO3)CC2)nc1C(=O)N1CCCC1 (centres undefined) | 97
Cc1cc2c(cc1C)N=C(C(F)(F)F)CC(c1cccs1)=N2 | 105

The list itself, from the first entry:
SMILES | GIV Gai3 FP
O=S(=O)(Cc1ccc(Cl)cc1)c1nc2ccccc2nc1N1CCc2ccccc2C1 | 102
Cc1csc(-c2cc(S(=O)(=O)N3CCCC(C)C3)cn2CC(=O)N2CCCCC2)n1 (centres undefined) | 103
Cc1oc(C2CCN(C(=O)C3CCCO3)CC2)nc1C(=O)N1CCCC1 (centres undefined) | 97
Cc1cc2c(cc1C)N=C(C(F)(F)F)CC(c1cccs1)=N2 | 105
CCc1nc(CN2C(=O)COc3ccc(S(=O)(=O)N4CCCCC4)cc32)no1 | 99
CC(=O)/C(=C1\NC(C)(C)Cc2cc(C)c(C)cc21)c1ccccc1 | 111
CCCCCCCN1C=C/C(=C\C=C\c2cc[n+](CCCCCCC)c3ccccc23)c2ccccc21 | 109
CCCS(=O)(=O)N1CCCN(C2=NS(=O)(=O)C(c3ccccc3)=C2C)CC1 | 102
Cc1ccc2nc(C(=O)Nc3ccc(Cl)cc3)cc(N3CCCCC3)c2c1 | 105
CCOC(=O)Nc1ccc2c(c1)N(C(=O)CCN(CC)CC)c1ccccc1CC2 | 106
COc1ccc(-n2ncc3c(N4CCN(c5ccc(C)cc5)C(C)C4)ncnc32)cc1 (centres undefined) | 104
CCOc1cc(/C=C2/C(=N)N3C(c4ccccc4)=CSC3=NC2=O)ccc1OCCOc1cccc(C)c1 | 111
CCOC(=O)/C(C(=O)Nc1ccc(Cl)cc1Cl)=C1/NC(C)(C)Cc2ccccc21 | 116
Cc1cccc(NC(=O)N2CCN(c3nc(C)cc(Nc4ccccc4)n3)CC2)c1 | 106
CCN(CC)C(=O)Cn1cnc2sc(C(=O)Nc3ccc(Oc4ccccc4)cc3)c(C)c2c1=O | 120
N#Cc1ccc(Cn2c3ccccc3c3nc4ccccc4nc32)cc1 | 104
COc1ccc2c(c1)-c1c(ssc1=Nc1cccc3ccccc13)C(C)(C)N2 | 109
CC(C)(C)Nc1c(-c2ccc(C#N)cc2)nc2sc3ccccc3n12 | 98
COc1cc(C2C(C#N)=C(N)Oc3n[nH]c(C(C)(C)C)c32)ccc1OC(=O)N1CCOCC1 (centres undefined) | 97
O=C(c1ccccc1)N1CCN(CC(O)Cn2c3ccc(Br)cc3c3cc(Br)ccc32)CC1 (centres undefined) | 112

A portion of the results above:
SMILES | GIV Gai3 FP
COc1cc(C2C(C#N)=C(N)Oc3n[nH]c(C(C)(C)C)c32)ccc1OC(=O)N1CCOCC1 (centres undefined) | 97
O=C(c1ccccc1)N1CCN(CC(O)Cn2c3ccc(Br)cc3c3cc(Br)ccc32)CC1 (centres undefined) | 112

(next part)
SMILES | GIV Gai3 FP
COc1ccc(C2/C(=C(\O)c3ccc(Cl)cc3)C(=O)C(=O)N2CCCN2CCOCC2)cc1OC (centres undefined) | 116
CC(C)(C)c1ccc(N2C(=O)/C(=C/c3ccc([N+](=O)[O-])cc3)C=C2c2ccccc2)cc1 | 113
COc1ccc(C2/C(=C(\O)c3ccc(C)cc3)C(=O)C(=O)N2c2ccccc2)cc1OC (centres undefined) | 105
COc1ccc(-c2cc(C(F)(F)F)n3ncc(C(=O)N4CCCCC4c4cccnc4)c3n2)cc1OC (centres undefined) | 102
COc1ccc(/C=C(/NC(=O)c2ccccc2)C(=O)N/N=C\c2ccc([N+](=O)[O-])s2)cc1 | 107
Cc1ccc(-n2c(-c3ccc(Br)cc3)cn3c4c(=O)n(C)c(=O)n(C)c4nc23)cc1 | 106
CC(Sc1nnc2c3ccccc3nc(-c3ccccc3)n12)C(=O)NCC1CCCO1 (centres undefined) | 101
CC(=O)Nc1ccc(C(=O)N2CC(C)CC(C)C2)o1 (centres undefined) | 107
CCCc1cc(C(=O)N2CCCC2c2cc(C)on2)no1 (centres undefined) | 100
COc1ccc(OC)c(C2C(N3C(=O)c4c(Cl)c(Cl)c(Cl)c(Cl)c4C3=O)C(=O)N2c2ccc(Br)cc2)c1 (centres undefined) | 113
O=C1Nc2ccccc2C12Oc1ccccc1C1CC(c3ccccc3)=NN12 (centres undefined) | 117
CC1CC(=O)Nc2ccccc2N1C(=O)c1ccccc1Cl (centres undefined) | 104
CCOC(=O)c1[nH]c(C)c(CN(Cc2ccc(C)cc2)C(=O)c2ccc3c(c2)OCO3)c1C | 99
Cc1noc(C)c1C1CCCN1C(=O)NC(C)C (centres undefined) | 101
CN1C(=O)C(O)(CC(=O)c2cccc(N3C(=O)C4CCCCC4C3=O)c2)c2ccccc21 (centres undefined) | 100
O=C(CSc1nc2ccccc2nc1Cc1ccc(F)cc1)NCc1ccccc1 | 103
O=S(=O)(c1cc(-c2nc(-c3ccc(Cl)cc3)no2)cs1)N1CCOCC1 | 103
c1cncc(CNc2nc(-c3ccncc3)nc3c2CCC3)c1 | 101
CC1(C)OC(=O)N(C2CC2)C1(C)O (centres undefined) | 101
CCOc1ccc(C2Nc3ccc(C)cc3[C@H]3OCCC[C@@H]23)cc1OC (some centres undefined) | 94
O=C(NC1CCCCC1)c1cccc(Oc2cc(-c3ccc(F)cc3)ncn2)c1 | 98
CC(C)c1ccc(NC(=O)CSc2nc3c(=O)[nH]cnc3n2C)cc1 | 101
COc1ccc(C2CC(=O)Nc3c2c(C)nn3-c2ccc3nnc(C)n3n2)cc1O (centres undefined) | 101
Cc1[nH]c(C)c(S(=O)(=O)NC2CC2)c1-c1nc(C2CC2)no1 | 108
CCn1nnc2cc(-c3noc(C4CCC4)n3)ccc21 | 104
Fc1ccc(Nc2nc(Oc3ccc4c(c3)OCO4)nc(N3CCOCC3)n2)c(F)c1 | 105
CC1(C)CC(=O)C2=C(C1)c1c(ccc3ccccc13)NC2c1cc(Br)c(O)c(Br)c1 (centres undefined) | 112
Cc1c(C(=O)Nc2sc3c(c2C(=O)NCC2CCCO2)CCC3)oc2ccccc12 (centres undefined) | 114
COc1ccc(OC)c(NC(=O)c2ccc(C3Nc4ccccc4S(=O)(=O)N3)cc2)c1 (centres undefined) | 103
COc1cccc(NC(=O)c2ccc3c4c(onc24)-c2ccccc2C3=O)c1 | 112
COc1ccc(OC)c(NC(=O)N2CCCN(c3nc4cc(Br)ccc4n4cccc34)CC2)c1 | 98
C=CCN1C=C/C(=C\C=C(/C#N)C(=O)Nc2ccccc2)c2ccccc21 | 108
Cc1[nH]n(-c2ccccc2)c(=O)c1C(c1cccc([N+](=O)[O-])c1)c1c(C)[nH]n(-c2ccccc2)c1=O | 103
CCOC(=O)CN1C(=N)N(c2nc(N(C)C)nc(N(C)C)n2)CC1=O | 117
Cc1ccc(N2C(=O)C3C4c5ccccc5C(CO)(c5ccccc54)C3C2=O)c(Br)c1 (centres undefined) | 126
Cc1nc2cc(-c3noc(-c4sc(C)nc4C)n3)ccc2o1 | 100
COc1cccc(NS(=O)(=O)c2cc(-c3nc(-c4ccc(Cl)cc4)no3)cs2)c1 | 103
COc1ccc(OC)c(S(=O)(=O)Nc2ccc(Oc3nc4ccccc4n4cnnc34)cc2)c1 | 98
O=C(Nc1cnn(-c2ncncc2N2CCOCC2)c1)c1cc2c(s1)CCCC2 | 105
Cc1cccn2c(=O)c(C(=O)NCCN3CCCC3)cnc12 | 103
CCCc1ccc(S(=O)(=O)N2CCc3c(c(-c4nc(-c5ccccc5)no4)nn3C)C2)cc1 | 101
Cc1cc(C2CCCN2C(=O)c2ccc(F)cc2)no1 (centres undefined) | 102
O=C(/C=C/c1ccccc1)Nc1c(-c2ccccc2)nc2ccccn12 | 99
Cn1c(=O)c(=O)n(C)c2cc(S(=O)(=O)c3ccc(F)cc3)c(N)cc21 | 98
O=C(/C=C/c1ccc(F)cc1)NCCCn1ccnc1 | 105
COC(=O)c1c(NC(=O)c2c(-c3c(Cl)cccc3Cl)noc2C)sc2c1CCCC2 | 124
CCCCC(=O)N1CCCCC1CCN1CCOCC1 (centres undefined) | 99
CN(CCO)c1cc(N2CCC3(CC2)OCCO3)c2nonc2c1[N+](=O)[O-] | 115
O=C(NCCc1ccc(Cl)cc1)C1Oc2ccccc2NC1=O (centres undefined) | 98
COc1ccc(C2C3=C(CC(C)(C)CC3=O)Nc3ccccc3N2C(=O)CC(C)C)cc1 (centres undefined) | 97
COc1ccc(C(=O)OCCN(C2=NS(=O)(=O)c3ccccc32)c2cccc(C)c2)c(OC)c1 | 108
COC(=O)c1ccc2c(=O)n(CCc3ccc(S(N)(=O)=O)cc3)c(SCc3cccc([N+](=O)[O-])c3)nc2c1 | 114
CN(CCCNC(=O)c1nc(CS(=O)(=O)c2ccc(Cl)cc2)no1)c1ccccc1 | 106
CCOC(=O)/C=C(\C)N1N=C(/C=C/c2ccccc2)CC1c1ccccc1 (centres undefined) | 112
Cc1cccc(NS(=O)(=O)c2cc(-c3cc(C(F)(F)F)on3)sc2C)c1 | 101
O=C(CCc1ccccc1)N1CCN(Cc2cc(=O)n3nc(-c4ccccc4F)sc3n2)CC1 | 95
Cc1cc(-n2c(C)nc3ccccc3c2=O)ccc1NC(=O)Cc1ccccc1F | 105
COc1ccc(CCN(C(=O)c2cc(Cl)cc(Cl)c2)C2=CC3CCC(C2)N3C)cc1OC (centres undefined) | 112
COc1ccc(-n2c(SCC(=O)NCCc3ccc(OC)c(OC)c3)nc3n[nH]c(C)c3c2=N)cc1 | 105
CC1(C)CC(=O)C2=C(C1)OC1=C(C(=O)CC(C)(C)C1)C2c1cccc(OCc2ccc(Cl)c(Cl)c2)c1 | 118
Carrying on:
SMILES | GIV Gai3 FP
CC(=O)c1ccc(N2CCN(c3ncnc4c3cnn4-c3ccccc3)CC2)cc1 | 105
COc1ccc(C2=N/C(=C/c3ccc(OC)c(OC)c3OC)C(=O)O2)cc1Br | 130
COc1ccc(OC)c(Nc2nnc(-c3cc4c(ccc5ccccc54)oc3=O)s2)c1 | 116
COc1ccc(N(CC(=O)Nc2ccc(Br)cc2)S(=O)(=O)c2ccccc2)c(OC)c1 | 120
O=c1[nH]c2ccc(S(=O)(=O)Nc3ccc4c(c3)OCCO4)cc2[nH]1 | 102
Cc1nn(-c2ccc3nnc(C)n3n2)c2c1C(c1ccsc1)CC(=O)N2 (centres undefined) | 122
CCS(=O)(=O)NCc1c(C)nc2sc(C)nn12 | 102
CC(=O)N1CCCc2cc(S(=O)(=O)N3CCC(C(=O)N4CCN(c5ccc(F)cc5)CC4)CC3)ccc21 | 104
COCCn1c(CNC(=O)c2ccc(Cl)cc2)nc2cccnc21 | 103
COc1cc(C2Oc3c(OC)cccc3C3CC(c4cccnc4)=NN32)cc(OC)c1OC (centres undefined) | 108
Fc1ccc(Nc2nc(NCc3ccccc3)nc(N3CCOCC3)n2)cc1 | 109
Cc1ccc(NC(=O)c2c(NC(=O)c3ccccc3Br)sc3c2CCCCC3)cc1 | 107
CCN(CC)CCNc1ncnc2c1CCC2 | 97
COc1ccc(OC)c(S(=O)(=O)N2CCN(c3nc(C)cc(N4CCOCC4)n3)CC2)c1 | 107
Brc1cc(Br)c2c(c1)C=C1CCCCC1(N1CCOCC1)O2 (centres undefined) | 105
O=C1C(=O)N(CCN2CCOCC2)C(c2ccccc2F)/C1=C(\O)c1ccc(Cl)cc1 (centres undefined) | 110
CC1(C)CC(=O)C2=C(C1)c1c(ccc3ncccc13)NC2c1ccc(-c2ccccc2)cc1 (centres undefined) | 122
CCS(=O)(=O)N1CCCC(c2n[nH]c(=O)n2-c2ccccc2)C1 (centres undefined) | 101
Cc1nnc(NC(=O)CSc2nnc(-c3cc4ccccc4o3)n2-c2ccccc2)s1 | 104
Cc1ccccc1N1C(=O)C2C(C1=O)C1(C(C)C)C=CC2(C)CC1 (centres undefined) | 100
CS(=O)(=O)N[C@H]1C[C@@H]2C[C@H]1N(C(=O)Cc1ccsc1)C2 | 102
CC(=O)N1CCCc2cc(S(=O)(=O)N3CCC(C(=O)N4CCN(c5cccc(C)c5)C(C)C4)CC3)ccc21 (centres undefined) | 99
CC(Sc1nc2ccccc2s1)C(=O)O (centres undefined) | 111
O=S(=O)(c1ccc(-c2cnc(C3CCCC3)o2)s1)N1CCOCC1 | 108
CCOC(=O)C1=NN(c2ccccc2)C2(S1)c1ccccc1C(c1ccc(Cl)cc1)=NN2c1ccccc1 (centres undefined) | 101
COc1ccc(-c2nc(Cn3nnc(-c4nc(-c5cc(OC)cc(OC)c5)no4)c3C)c(C)o2)cc1 | 104
Cc1cccc(NC(=O)Cn2nc(C(=O)Nc3ccccc3)ccc2=O)c1C | 100
O=C(Cn1cnc2c(sc3ncccc32)c1=O)NCc1ccc(Cl)cc1 | 100
O=C(Cn1cnc2c(sc3ncccc32)c1=O)N1CCN(c2ccccc2F)CC1 | 100
O=C(c1ccc(Cl)s1)N1CCN(c2ncnc3c2CCC3)CC1 | 104
O=C1/C(=C/c2ccc(-c3ccc(Br)cc3)o2)C=C(c2ccccc2)N1c1cccnc1 | 128

Four of the compounds above, with each value named:
COc1ccc(-c2nc(Cn3nnc(-c4nc(-c5cc(OC)cc(OC)c5)no4)c3C)c(C)o2)cc1
- GIV Gai3 FP: 104

O=S(=O)(c1ccc(-c2cnc(C3CCCC3)o2)s1)N1CCOCC1
- GIV Gai3 FP: 108

CCOC(=O)C1=NN(c2ccccc2)C2(S1)c1ccccc1C(c1ccc(Cl)cc1)=NN2c1ccccc1 (centres undefined)
- GIV Gai3 FP: 101

O=C(Cn1cnc2c(sc3ncccc32)c1=O)N1CCN(c2ccccc2F)CC1
- GIV Gai3 FP: 100
